ALR inh – inhibitors of human sulfhydryl oxidase ALR; P55789; purified ALR, DTT oxidation, H2O2 HRP-luminol luminescence; inhibition, % (test concentration not listed); 290,000 compounds, 3.8% hits; AID 485317;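 active means mean and each replicate at 75% or more; inconclusive means only one of the two met; inactive means neither met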;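 further: stock transfer was 7.5 nL into about 7.5 µL; 0% = neutral wells and 100% = wells with inactivated enzyme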
Target sequence (P55789 whole entry, looked up): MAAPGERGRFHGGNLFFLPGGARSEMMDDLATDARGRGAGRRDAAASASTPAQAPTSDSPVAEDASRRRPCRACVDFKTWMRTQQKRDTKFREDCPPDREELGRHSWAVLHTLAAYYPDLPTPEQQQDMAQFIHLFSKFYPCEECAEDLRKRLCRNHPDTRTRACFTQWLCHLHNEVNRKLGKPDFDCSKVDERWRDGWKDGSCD
Vif A3G – inhibitors of Vif binding to APOBEC3G peptide, primary screen, biochemical, TR-FRET, GST-Vif 1-94, biotin-A3G peptide, dose response retest (AID 1117319); TR-FRET GST-Vif / biotin-A3G peptide binding; higher % means a stronger effect; test concentration not given here; strong numbers were not always called active; one-dose inhibition, %; IC50 in µM for titrated hits; 260,000 compounds, 0.57% hits;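 active means above the screen mean plus three standard deviations and confirmed in dose response; inconclusive means results disagree or hit not tested in dose response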;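 further: Vif residues 1-94 fused to GST binding biotinylated APOBEC3G peptide 110-148; 0% = full assay without inhibitor and 100% = GST in place of GST-Vif; retest series ran down from 100 µM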
AF4-AF9 inh – MLL-AF4/AF9 protein interaction inhibition; AlphaScreen, biotin-AF4 peptide binding to FLAG-AF9; inhibition, % at 10 µM; 350,000 compounds, 0.47% hits;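 active means every replicate reaching a set inhibition limit, whatever the replicate mean, cut at about 25% in these data; inconclusive means mean inhibition reaches that limit but some replicates miss it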;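 further: 0% = plate neutral control median and 100% = total signal loss; the record names both 10 and 1 µM as test concentration; the first replicate is given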
Target sequence (P42568 whole entry, looked up): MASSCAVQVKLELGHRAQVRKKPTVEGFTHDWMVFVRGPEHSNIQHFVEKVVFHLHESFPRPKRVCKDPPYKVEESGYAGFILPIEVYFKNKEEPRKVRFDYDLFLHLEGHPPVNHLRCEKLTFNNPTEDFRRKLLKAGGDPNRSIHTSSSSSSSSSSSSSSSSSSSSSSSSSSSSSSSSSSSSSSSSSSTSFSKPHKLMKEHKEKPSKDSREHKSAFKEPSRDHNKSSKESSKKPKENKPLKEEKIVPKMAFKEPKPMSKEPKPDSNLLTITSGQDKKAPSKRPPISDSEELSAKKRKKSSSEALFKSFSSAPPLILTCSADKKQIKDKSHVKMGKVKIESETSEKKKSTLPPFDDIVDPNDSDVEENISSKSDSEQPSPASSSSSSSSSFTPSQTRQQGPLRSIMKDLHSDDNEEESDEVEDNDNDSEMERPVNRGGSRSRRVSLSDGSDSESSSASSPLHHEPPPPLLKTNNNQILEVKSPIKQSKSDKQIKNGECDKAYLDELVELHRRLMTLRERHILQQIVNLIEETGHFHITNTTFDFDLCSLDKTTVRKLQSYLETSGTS
Ecoli rRNA inh – selective bacterial rRNA inhibition in E. coli; GFP signal change (wild-type ribosome), % (concentration not given with the values); E. coli WT GFP vs humanized-ribosome RFP mutants, fluorescence, 24 h; stronger effect = lower value; DMSO median 0, no signal -100; 350,000 compounds, 1.6% hits; AID 720706;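 active means significant combined selectivity score with lowered wild-type GFP, culture density cut under 30%, mutant RFP and density less affected; inactive means any of these conditions unmet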; further: one replicate is shown; some compounds called inactive have numbers as strong as hits
Ecoli growth – E. coli growth inhibition. OD600 absorbance (test concentration not listed). Escherichia coli growth, OD600, 23 h; stronger effect = lower value. 330,000 compounds, 0.21% hits;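 active means OD600 absorbance below the run mean of sample wells minus 3.6 SD, in any replicate, cut at about 0.56 in these data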;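 further: stock transfer was 300 nL into about 60 µL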
HNF4A DNA FP – change in binding of human HNF4 alpha to DNA; P41235; HNF4a-FITC DNA binding, fluorescence polarization, 1 h; activity change, % at 10 µM; 360,000 compounds, 0.3% hits; AID 1224865; in the data active means activity change above about 30%, passing the limit was not always enough;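 further: controls were the assay level and a saturating level of protein; the project sought stronger binding though the title names inhibitors; some compounds called inactive have numbers as strong as hits; positive values seem to mean higher polarization but the record does not say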
FGF22 binding – binders of recombinant human FGF22 by thermal shift | AID 651658 | 340,000 compounds, 1.5% hits | SYPRO orange fluorescence; percent of sucrose octasulfate shift, DMSO zero | calls only at 9.99 µM;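 active means melting point raised past a set limit in the mean and every replicate; inconclusive means no clear call; three in four hits are not shown here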
Target sequence (Q9HCT0 whole entry, looked up): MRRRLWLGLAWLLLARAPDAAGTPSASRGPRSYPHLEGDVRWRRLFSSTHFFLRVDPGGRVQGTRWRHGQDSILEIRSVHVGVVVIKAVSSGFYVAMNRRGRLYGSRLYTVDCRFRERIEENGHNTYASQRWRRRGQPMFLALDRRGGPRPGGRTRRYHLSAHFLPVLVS
Ecoli rRNA inh OD600 – also measured in Ecoli rRNA inh; calls as there; OD600 change, %; measured here: OD600 growth;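 optical density of the mix in the first replicate; 0 = DMSO median and -100 = no signal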
Ecoli rRNA inh RFP – second read-out of Ecoli rRNA inh, no call of its own (marks repeat the call); RFP signal change, %; measured here: RFP humanized mutant strains;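 first replicate; 0 = DMSO median and -100 = no signal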
Active calls of the source: *; i = inactive; ? = inconclusive; nt = no result given. Not all compounds are listed (hit frequency here may not be typical).

SMILES	ALR inh	Vif A3G	AF4-AF9 inh	Ecoli rRNA inh	Ecoli rRNA inh OD600	Ecoli rRNA inh RFP	Ecoli growth	HNF4A DNA FP	FGF22 binding
Cc1ccc(C)c(Oc2cc(NN3CCCCC3)c([N+](=O)[O-])cc2[N+](=O)[O-])c1	-3	nt	4.5	5	10	-0.8	0.7	-1.6	i
CCOc1ccc(NC(=O)CN2CCN(CC(=O)Nc3ccc4c(c3)OCCO4)CC2)cc1	-8	0%	nt	nt	nt	nt	0.75	-1.7	nt
CC(CO)N1CCS(=O)(=O)CC1 (configuration not stated)	-12	4%	nt	nt	nt	nt	0.75	-2.0	nt
O=Cc1cnc(N2CCN(Cc3ccccc3)CC2)s1	2	-5%	-1.3	7	10	0.2	0.66	1.1	i
CCOC1(c2ccccc2)OC(=O)c2ccccc21 (configuration not stated)	-2	-5%	-1.4	5	-3	-3.7	0.67	1.7	i
COC(=O)C(CCC(=O)CN1C(=O)c2ccccc2C1=O)N1C(=O)c2ccccc2C1=O (configuration not stated)	nt	-1%	1.6	-2	1	0.5	nt	1.8	i
COCOCCn1cc(CN2CCS(=O)(=O)N(Cc3ccc(-c4cccc(N(C)C)c4)cc3)C(C(C)C)C2=O)nn1 (configuration not stated)	nt	nt	4.5	-2	-1	-0.9	nt	-6.4	i
COc1cc(/C=C/C(C)=O)cc(OC)c1OC	13	-1%	nt	nt	nt	nt	0.74	0.0	nt
O=C(CCNS(=O)(=O)c1cccc2nonc12)N1CCN(c2cccc(Cl)c2)CC1	2	21%	nt	nt	nt	nt	0.75	2.2	nt
CN1[C@@H]2c3ccc(-c4cccc(F)c4)c(=O)n3C[C@H]1[C@H](CO)[C@H]2C(=O)NCc1ccccc1	nt	nt	-1.9	-4	-5	0.9	nt	nt	i
C=CCNc1nc2c(c(=O)[nH]c(=O)n2C)n1CC(O)COc1ccc2ccccc2c1 (configuration not stated)	nt	3%	0.6	-1	7	8.8	0.69	0.8	i
CC(C)Cn1c(=O)c(C(=O)NCc2ccc3c(c2)OCO3)c(O)c2ccccc21	1	-5%	-0.4	9	7	0.3	0.67	0.7	i
COc1cc2c(cc1OC)CN(CC(=O)Nc1ccc3c(c1)OC(F)(F)O3)CC2	3	3%	nt	nt	nt	nt	0.65	-2.5	nt
O=C(C[C@H]1C[C@@H]2c3cc(NC(=O)NC4CCCCC4)ccc3O[C@@H]2[C@@H](CO)O1)NCC(F)(F)F	nt	nt	-0.4	0	6	-0.5	nt	nt	i
CC(C(=O)NC(c1ccccc1)c1ccccc1)N1CCOCC1 (configuration not stated)	-4	nt	-3.5	7	5	-1.1	0.7	1.7	i
C[C@@H]1CN([C@H](C)CO)S(=O)(=O)c2ccc(-c3cccc(F)c3)cc2O[C@@H]1CN(C)C	nt	nt	0.3	-2	2	-0.2	nt	nt	i
Cc1c(C(=O)Oc2cccc3ccccc23)cnn1-c1ccccc1	-16	27%	nt	nt	nt	nt	0.72	-1.7	nt
O=C(NCc1n[nH]c(=S)n1-c1cccc(C(F)(F)F)c1)c1ccc(S(=O)(=O)N2CCCCC2)cc1	71	nt	-8.3	-4	-2	3.3	0.71	1.5	i
O=C(CCN1CCCCC1)NCC[C@@H]1CC[C@H](NC(=O)C2CCOCC2)[C@H](CO)O1	nt	nt	-5.9	0	3	0.7	nt	nt	i
Cc1cn(C2CC(O)C(CO)O2)c(=O)n(CCCc2ccccc2)c1=O (configuration not stated)	nt	nt	-6.7	4	11	5.4	nt	-2.9	i
CC(C)(C)c1cc(NS(=O)(=O)c2ccc3c(c2)OCCO3)on1	-6	20%	nt	nt	nt	nt	0.64	4.2	nt
COC(=O)Cc1c(C)c2ccc(OCC(C)=O)c(C)c2oc1=O	-7	-5%	nt	nt	nt	nt	0.74	1.9	nt
Cc1nn(CCO)c2c1C(=O)CCC2	nt	17%	nt	nt	nt	nt	0.8	0.9	nt
O=C1c2cccc(-c3ccc(C(F)(F)F)cc3)c2C2CCCCN12 (configuration not stated)	nt	nt	2.1	-32	-40	-8.8	nt	2.0	i
COc1cc2c(cc1OC)CN(C(=O)CSc1nnc(C)s1)CC2	-2	0%	nt	nt	nt	nt	0.7	-3.1	nt
CSCCC1C(C#N)=C(N)Oc2n[nH]c(-c3cccs3)c21 (configuration not stated)	40	24%	nt	nt	nt	nt	0.69	-1.9	nt
O=C(NC1CCCCC1)C(c1ccc(F)cc1)N(Cc1ccccc1)C(=O)CN1C(=O)c2ccccc2S1(=O)=O (configuration not stated)	-5	nt	nt	nt	nt	nt	0.68	0.0	nt
Cc1cccc(C)c1NC(=O)C1(C)CSCC(=O)N1C1CCN(Cc2ccccc2)CC1 (configuration not stated)	nt	nt	nt	12	8	5.7	nt	-3.1	i
Cc1cccc(NS(=O)(=O)c2cc(C(=O)N3CCc4ccccc4C3)ccc2Cl)c1C	-3	22%	nt	nt	nt	nt	0.69	-2.0	nt
CS(=O)(=O)N(CC(=O)NCCC1=CCCCC1)c1cccc([N+](=O)[O-])c1	-28	-1%	1.3	4	-1	-3.1	0.67	2.1	i
COc1ccc(NC2CCCN(C(=O)CCOc3ccccc3)C2)cc1 (configuration not stated)	99*	0%	2.8	-1	-5	-2.3	0.61	3.2	i
O=C(N=C1SC2CS(=O)(=O)CC2N1Cc1ccc(F)cc1)C1CCCO1 (configuration not stated)	-2	nt	0.2	0	0	-1.5	0.69	-1.0	nt
CCOC(=O)C1CCCN(C(=O)c2cc(-c3cccs3)oc2C)CC1 (configuration not stated)	nt	nt	1.6	-7	-5	-1.5	nt	-1.9	i
CC(C)Oc1ccc(C(=O)Nc2ccc(Cl)c(S(=O)(=O)Nc3ccc(Cl)cc3)c2)cc1	nt	15%	nt	nt	nt	nt	0.68	2.9	nt
C[C@H]1CN([C@@H](C)CO)S(=O)(=O)c2ccc(Br)cc2O[C@@H]1CN(C)S(=O)(=O)c1ccc(F)cc1	nt	nt	0.7	1	-24	-1.4	nt	nt	i
COc1ccc(-c2nc(CS(=O)CC(=O)NC3CCC(C)CC3)c(C)o2)cc1OC (configuration not stated)	99*	-2%	-0.4	-10	-7	-3.2	0.68	-1.4	i
O=C(NCC(=O)N(Cc1ccco1)C(C(=O)NC1CCCC1)c1cccnc1)c1ccco1 (configuration not stated)	-5	21%	nt	nt	nt	nt	0.7	-1.7	nt
Cc1ccc(-c2cc3nc(NCCc4ccncc4)n(C)c(=O)c3s2)cc1	nt	nt	-2.3	4	9	2.6	nt	3.2	i
CN1CCC(=O)N(CCSc2ccc(Br)cc2)CC1	nt	nt	nt	11	10	-1.5	0.64	-5.2	i
CCNc1sc(C(=O)c2cccs2)c(N)c1C#N	31	8%	nt	nt	nt	nt	0.71	-0.6	nt
CCS(=O)(=O)N1CCCCN2[C@H](CO)[C@@H](c3ccc(C#CC(C)(C)O)cc3)[C@@H]2C1	nt	nt	-7.5	3	11	-1.8	nt	nt	i
COc1ccc(/C=C2\SC(=O)N(CC(=O)NNC(=O)c3ccccc3O)C2=O)cc1OC	-2	10%	nt	nt	nt	nt	nt	1.5	nt
O=C(NNS(=O)(=O)c1ccccc1)c1ccncc1	16	12%	nt	nt	nt	nt	0.72	0.8	nt
Cc1ccccc1C(=O)N/C(=C/c1ccc(-c2cccnc2Cl)o1)C(=O)NCCCN1CCN(C)CC1	-5	-1%	nt	nt	nt	nt	0.74	5.6	nt
CN(C)CC(=O)N1CC2(C1)[C@H](c1ccccc1)[C@H](CO)N2C(=O)C1CC1	nt	nt	-1.6	5	20	1.3	nt	nt	i
N/C(=N\OC(=O)Cc1ccc([N+](=O)[O-])cc1)c1cccc(Br)c1	99*	13%	5.8	2	3	2.0	nt	-0.1	i
COc1ccc2[nH]cc(CCNS(=O)(=O)c3ccc(NC(C)=O)cc3)c2c1	0	?	3.0	-3	5	-3.9	0.69	0.5	i
Cn1c(-c2ccccc2Br)n[nH]c1=S	96*	-3%	nt	nt	nt	nt	0.74	0.4	nt
CCOc1cccc2sc(N(CCN(C)C)C(=O)c3ccc4c(c3)OCCO4)nc12	-6	nt	7.6	-5	-2	0.3	0.68	1.5	i
Cc1[nH]c2ccccc2c1SCCNC(=O)c1ccc(Br)o1	78*	2%	12	-39	-42	-4.7	0.68	-2.6	i
The list continues.
SMILES	ALR inh	Vif A3G	AF4-AF9 inh	Ecoli rRNA inh	Ecoli rRNA inh OD600	Ecoli rRNA inh RFP	Ecoli growth	HNF4A DNA FP	FGF22 binding
CC1(C)CC(=O)C=C(Nc2ccc(F)cc2F)C1	nt	1%	nt	nt	nt	nt	0.7	1.4	nt
COc1cccc(CNC(=O)C[C@H]2CC[C@@H](NC(=O)C3CCOCC3)[C@@H](CO)O2)c1	nt	nt	0.6	4	3	-2.9	nt	nt	i
CSCCC(NC(=O)COc1ccccc1)C(=O)OCC(=O)c1cc2ccccc2o1 (configuration not stated)	nt	-6%	nt	nt	nt	nt	0.67	3.4	nt
CCOC(=O)C1(CCOc2ccccc2)CCN(Cc2ccncc2)CC1	1	-2%	2.8	-11	-15	-2.5	0.7	-0.8	i
C[C@@H]1CN([C@@H](C)CO)S(=O)(=O)c2ccc(C#CCC3CCCC3)cc2O[C@@H]1CN(C)C	nt	nt	9.7	8	-7	2.2	nt	nt	i
COc1cccc2sc(NC(=O)c3ccc(Br)s3)nc12	nt	-66%	nt	nt	nt	nt	0.8	-0.2	nt
CN(C)c1nc(N)nc(CSc2nc3c(c(=O)n(C)c(=O)n3C)n2Cc2ccccc2F)n1	-1	61µM*	-0.9	9	19	2.2	0.69	0.8	i
COc1ccc(NS(=O)(=O)c2ccc(C)c(NC(=O)NC3CCCCC3)c2)cc1	-3	nt	nt	nt	nt	nt	0.71	0.0	nt
COc1cccc(OCCCn2cc(/C=C3/C(=N)N4C=C(C)SC4=NC3=O)c3ccccc32)c1	-12	32%	5.1	19	15	27	0.69	0.6	i
Cc1ccc2c(c1)N(CC(=O)NCc1cccs1)C(=O)CO2	-8	-3%	nt	nt	nt	nt	0.74	-0.8	nt
O=C(NC12CC3CC(CC(C3)C1)C2)C1CC(=O)N(c2ccccc2)C1 (configuration not stated)	nt	6%	nt	nt	nt	nt	0.69	2.4	nt
COc1cc(CNC(C)c2ccccc2)cc(Br)c1OCc1ccccc1 (configuration not stated)	-39	nt	-1.6	-56	-80	-17	0.62	-2.1	i
COc1ccc(CNC(=O)COC(=O)/C=C/c2cccc(Br)c2)cc1OC	1	-6%	-0.6	10	10	-0.4	0.7	2.2	i
CC=Cc1ccc2n(c1=O)C[C@@H]1[C@@H](CO)[C@H](C(=O)NC3CCCC3)N(Cc3nccs3)[C@H]21 (mixture of isomers)	nt	nt	-1.1	2	-4	0.3	nt	nt	i

Three of the compounds above, field by field.
CC=Cc1ccc2n(c1=O)C[C@@H]1[C@@H](CO)[C@H](C(=O)NC3CCCC3)N(Cc3nccs3)[C@H]21 (mixture of isomers)
  ALR inh: nt | Vif A3G: nt | AF4-AF9 inh: -1.1 | Ecoli rRNA inh: 2 | Ecoli rRNA inh OD600: -4 | Ecoli rRNA inh RFP: 0.3 | Ecoli growth: nt | HNF4A DNA FP: nt | FGF22 binding: i
COc1cc(CNC(C)c2ccccc2)cc(Br)c1OCc1ccccc1 (configuration not stated)
  ALR inh: -39 | Vif A3G: nt | AF4-AF9 inh: -1.6 | Ecoli rRNA inh: -56 | Ecoli rRNA inh OD600: -80 | Ecoli rRNA inh RFP: -17 | Ecoli growth: 0.62 | HNF4A DNA FP: -2.1 | FGF22 binding: i
O=C(NC12CC3CC(CC(C3)C1)C2)C1CC(=O)N(c2ccccc2)C1 (configuration not stated)
  ALR inh: nt | Vif A3G: 6% | AF4-AF9 inh: nt | Ecoli rRNA inh: nt | Ecoli rRNA inh OD600: nt | Ecoli rRNA inh RFP: nt | Ecoli growth: 0.69 | HNF4A DNA FP: 2.4 | FGF22 binding: nt
